# Assay outcomes: PubChem, ICCB-Longwood Screening Facility, Harvard Medical School
# fixLJ activator: activators of Burkholderia fixLJ two-component system; B. multivorans fixK-promoter GFP reporter, 18 h; hits give high values; z-score (test concentration not listed); 29,000 compounds, 0.3% hits; AID 1918990;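 active = replicate mean overnight rise in green fluorescent reporter signal, 3 or more SD over negative controls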;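 also: score is relative to vehicle wells of the plate; 300 nL library stock went into each well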
# * hit, by the source's call; & = joins results of further samples. A portion of the library; count on the stated rates, not on these rows.
compound	fixLJ activator
COc1ccc(-n2c(=O)c3ccccc3n(Cc3ccc(F)cc3Cl)c2=O)cc1OC	-0.26
COc1cccc(CNC(=O)Cn2c(=O)oc3cc(S(=O)(=O)N4CCCC4)ccc32)c1	0.97
CC(=O)O[C@]1(C(C)=O)CCC2C3C=C(Cl)C4=CC(=O)CC[C@]4(C)C3CC[C@@]21C (stereo partly drawn)	-0.99
CCOc1ccc2ncc3c(-c4ccc(C)cc4)nn(-c4cccc(F)c4)c3c2c1	-0.34
CCN(CC)CCNC(=O)c1ccc(N)cc1	-1.4&-2.8
CCOc1ccc(CC(=O)N2CCc3cc(OC)c(OC)cc3C2COc2ccc3c(C)cc(=O)oc3c2)cc1 (stereo not drawn)	1.6
O=C(NCc1noc(-c2cccs2)n1)C1NCCc2[nH]cnc21 (stereo not drawn)	-0.03
COc1cccc(NC(=O)C(Cc2ccccc2)NS(=O)(=O)c2ccc3c(c2)c(=O)n(C)c(=O)n3C)c1 (stereo not drawn)	-1.6
CC(=O)O[C@]1(C(C)=O)CCC2C3C=C(C)C4=CC(=O)CCC4(C)C3CCC21C (stereo partly drawn)	-0.86
CCc1ccc(CNC(=O)c2cc3c(=O)oc4ccc(C)cc4c3s2)cc1	-1.9
COc1ccc(-c2nc3cc(NC(=O)c4ccc(C)cc4)ccc3o2)cc1Cl	1.1
CCC1C=CCN1S(=O)(=O)c1cc(OC)c(C)cc1OC (stereo not drawn)	-0.79
O=C(O)C1CN(S(=O)(=O)c2ccc(C(F)(F)F)cc2)CCC1O (stereo not drawn)	-0.32
O=C1CC2C(CCN2C(=O)C2(c3ccc(Cl)cc3)CCC2)N1Cc1ccon1 (stereo not drawn)	-0.78
O=C1CC(Nc2ncnc3sccc23)CN1Cc1ccccc1Cl (stereo not drawn)	0.71
COc1ccc2[nH]cc(CCN=C(NC(=O)c3ccccc3OC)Nc3nc(C)cc(C)n3)c2c1	-1.6
O=C(NCc1cnc2ccccc2c1)N1CCC(O)(Cn2ccnc2)CC1	0.25
CCOc1ccc(N(CC(=O)Nc2ccccc2CC)S(=O)(=O)c2c(C)noc2C)cc1	-0.51
Cc1ccc(S(=O)(=O)Cc2ccc(C(=O)N3CCN(c4cccc(Cl)c4)CC3)o2)cc1	0.45
COc1ccc(-c2c(C)nn3c(C(F)(F)F)cc(-c4ccc(C)cc4)nc23)cc1	-1.6
O=C(Cn1c(=O)n(Cc2ccco2)c(=O)c2ccc(C(=O)NC3CCCC3)cc21)Nc1ccc(F)cc1	-4.6
Cc1nc2c(c(C)nn2-c2ccccc2)c(C)c1CCC(=O)NCCc1ccc(Cl)cc1	-0.5
CC(C)(O)C#Cc1ccc(C(=O)NCCNC(=O)c2cccnc2)cc1	-0.91
Cc1ccc(S(=O)(=O)Cc2ccc(C(=O)NCCc3ccc(Cl)cc3)o2)cc1	-0.07
Cc1cc(C)c2c(n1)SCC(=O)N2CC(=O)Nc1ccc(C)c(C)c1	0.53
COc1ccc(C(=O)c2c(C)n(CCN3CCOCC3)c3ccccc23)cc1	-1.4
CCOc1ccc(N(CC(=O)Nc2ccc3c(c2)OCO3)S(=O)(=O)c2ccccc2)cc1	0.96
Cc1ccc(-n2nc(C)c3c(C)c(CCC(=O)NCc4ccccc4Cl)c(C)nc32)cc1	-0.65
O=C(CSc1ccncc1)N1CCc2[nH]nc(C3CC3)c2C1	-1.4
CC(C)c1nc(CN(C)C(=O)c2ccc(-n3cnnn3)cc2)cs1	-0.7

# For convenience, two of the compounds above:
compound	fixLJ activator
O=C(CSc1ccncc1)N1CCc2[nH]nc(C3CC3)c2C1	-1.4
CC(C)c1nc(CN(C)C(=O)c2ccc(-n3cnnn3)cc2)cs1	-0.7

# Continuation.
compound	fixLJ activator
CCOc1ccc(-c2ncnn2-c2sc3c(c2C#N)CCCCC3)cc1	-0.26
Clc1ccc(CCNC(c2nnc(-c3ccccc3)o2)c2ccccc2Cl)cc1 (stereo not drawn)	2.3
O=C(Cn1ncc2ccsc2c1=O)N1CCN(c2ccccc2)CC1	-0.17
Cc1ccc(-n2nc(CO)c(C(=O)NCc3cccnc3)n2)cc1C	1.4
CN1C[C@H](C(=O)N[C@]2(C)C[C@@]3(O)C4CCCN4C(=O)[C@H](Cc4ccccc4)N3C2=O)C=C2c3cccc4[nH]cc(c34)C[C@H]21 (stereo partly drawn)	0.31
COc1cccc(NC(=O)c2oc3ccccc3c2NC(=O)c2cc3ccccc3o2)c1	1.1
Cc1ccc(-c2cc(C(=O)NC3CC(c4nnc(CO)n4C)C3)[nH]n2)cc1 (stereo not drawn)	-4
CCn1cc(C(=O)NCc2ccccc2Cl)c(=O)c2cc(S(=O)(=O)N3CCCCCC3)ccc21	-0.72
Cc1ccc2nc(-c3c[nH]c4ccccc34)c(Nc3ccccc3C)n2c1	-0.83
O=C1c2ccccc2C(=O)C1(c1ccccc1)N1CCN(c2cccc(C(F)(F)F)c2)CC1	0.57
CN(C)C(=O)Oc1cccc([N+](C)(C)C)c1	-1&-0.22
Cc1ccc2nc(-c3ccc(F)cc3)c(NC(C)(C)CC(C)(C)C)n2c1	-2.2
COc1ccc(OC)c(NC(=O)Cn2c(=O)n(CC3CCCO3)c(=O)c3cc(OC)c(OC)cc32)c1 (stereo not drawn)	-0.2
O=C(O)CCCc1ccc(N(CCCl)CCCl)cc1	-1.5&-0.08
Nc1nc(CCCNS(=O)(=O)c2ccc3c(c2)NC(=O)CCS3)cs1	0.17
COc1ccc(-n2c(-c3ccco3)nc3c(cnn3-c3ccccc3C)c2=O)cc1	1.4
Cc1cc(C)n2nc(CNS(=O)(=O)c3ccc(Cl)cc3)nc2n1	-0.85
Cc1cc2nc(CCC(=O)NCc3ncc(Cl)cn3)[nH]c2cc1C	0.05
CC(=O)c1cccc(NC(=O)Cn2c(-c3cncs3)nc3ccccc32)c1	-0.99
NC(CCO)C(=O)NCc1cccnc1Oc1cccc(C(F)(F)F)c1 (stereo not drawn)	-1.2
CCCCn1c(-c2ccc(S(=O)(=O)N3CCOCC3)cc2)csc1=Nc1ccccc1	0.4
CC(=O)c1ccc(-n2c(CCC(=O)O)ccc2-c2cccs2)cc1	-1.4
Cn1c(N2CCOCC2)nc2cc(C(=O)NCC(=O)O)ccc21	-0.7
CCOc1ccc(C2Nc3ccccc3-c3nnc(SCc4ccccc4)nc3O2)cc1OC (stereo not drawn)	-3.2
CCOC(=O)N1CCc2c(sc3c2c(=O)n(-c2ccc(CC)cc2)c(=O)n3C)C1	-0.56
CN(CCO)Cc1nnc(C2CCN(C(=O)CN(C)C3CCCC3)CC2)n1C	-1.7
Cc1cc2nc(-c3ccc(OCc4ccccc4C)cc3)cc(C(F)(F)F)n2n1	-2
Cc1ccc(-c2nc(S(=O)(=O)c3ccc(C)cc3)c(SCC(=O)c3ccccc3)o2)cc1	0.2
COc1ccc(-c2nc(SCC(=O)Nc3ccc4c(c3)OCCO4)c(-c3ccccc3)[nH]2)cc1	0.59
CCC(NC(C)=O)C(=O)N1CCc2nc(-c3ccc(F)cc3F)[nH]c2C1 (stereo not drawn)	-0.3

# The final 5 compounds of the part above come first, to join the parts:
compound	fixLJ activator
CN(CCO)Cc1nnc(C2CCN(C(=O)CN(C)C3CCCC3)CC2)n1C	-1.7
Cc1cc2nc(-c3ccc(OCc4ccccc4C)cc3)cc(C(F)(F)F)n2n1	-2
Cc1ccc(-c2nc(S(=O)(=O)c3ccc(C)cc3)c(SCC(=O)c3ccccc3)o2)cc1	0.2
COc1ccc(-c2nc(SCC(=O)Nc3ccc4c(c3)OCCO4)c(-c3ccccc3)[nH]2)cc1	0.59
CCC(NC(C)=O)C(=O)N1CCc2nc(-c3ccc(F)cc3F)[nH]c2C1 (stereo not drawn)	-0.3
CC(C)CS(=O)(=O)CCNC1CCN(c2nc3ccccc3o2)CC1	2.1
CN(Cc1cc(-c2ccncc2)no1)C(=O)Nc1ccccc1	-0.14
COc1ccc(N2C(=O)C(CC(=O)Nc3ccccc3)N(CCC3=CCCCC3)C2=O)cc1 (stereo not drawn)	-2.2
Cn1c(=O)oc2cc(S(=O)(=O)N3CCCC(C(=O)Nc4ccc(Br)cc4F)C3)ccc21 (stereo not drawn)	-0.32
O=C(O)CCC(=O)OC[C@@H](NC(=O)C(Cl)Cl)[C@H](O)c1ccc([N+](=O)[O-])cc1	-2.2
CCOC(=O)c1ccccc1NC(=O)c1cn(CC(C)C)c(=O)c2cc(OC)c(OC)cc12	-1
COC(=O)c1ccc(NC(=O)CCNS(=O)(=O)c2cccc3nsnc23)cc1	-0.74
CCCOc1ccc(-c2nc(N3CCCCC3)c3ccccc3n2)cc1	-0.23
CCN(CC)S(=O)(=O)c1ccc2c(c1)N(CC(=O)Nc1cccc(C(C)=O)c1)C(=O)CO2	-0.28
COc1cc(C(=O)N2CCC(CCn3cccn3)CC2)ccc1O	0.25
CCC(Oc1ccccc1F)C(=O)Nc1c(C(=O)c2ccccc2)oc2ccccc12 (stereo not drawn)	0.35
CCOC(=O)c1ccc(NC(=O)c2nsc3ccccc23)cc1	1.2
CCOc1ccc(C(=O)c2cn(CC(=O)Nc3ccc(OC)cc3)c3cc4c(cc3c2=O)OCO4)cc1	-0.46
Cc1c(C)c2c(c(C)c1O)CCC(C)(CCCC(C)CCCC(C)CCCC(C)C)O2 (stereo not drawn)	-1.2
Cc1ccc(NC(=O)c2cc(-c3cccs3)on2)cc1C	-0.96
Cc1ccc(-n2c3c(c(=O)[nH]c2=O)C(NC(=O)c2ccccc2F)(C(F)(F)F)C(=O)N3)cc1C (stereo not drawn)	-1.1
COc1cccc(C2C(C(=O)Nc3ccccc3OC)=C(C)Nc3nc4ccccc4n32)c1 (stereo not drawn)	-1.3
CC(C)(C)c1ccc(C(=O)Nc2ccc(OCc3cc(=O)n4ccsc4n3)cc2)cc1	-1.2
COc1ccc(Nc2c3c(nc4ccccc24)CCC3)cc1Cl	-3.5
CCN1C(=O)C2(c3ccccc31)c1c(oc3ccc(C)cc3c1=O)C(=O)N2CCCOC(C)C (stereo not drawn)	-0.29
Cc1ccc(CNc2nc3ccc(Cl)cc3n3nnnc23)cc1	-0.69
CCOC(=O)c1cn(CC(=O)Nc2cccc(Cl)c2C)nn1	-1.4
Cc1ccc(C(=O)N2CCC3(CC2)CN(Cc2scnc2C)C(=O)CCO3)cn1	-0.55
COc1ccccc1NC(=O)C1=C(C)Nc2nc(SCc3ccccc3)nn2C1c1ccccn1 (stereo not drawn)	-0.24
O=c1n(Cc2cccc(C(F)(F)F)c2)c2ccccc2c2nc(-c3ccccc3)nn12	-0.06
CCOC(=O)c1cc(OC(=O)c2ccccc2C)n(-c2ccccc2)n1	-1.6
CCOc1ccc(-n2c(SCC(N)=O)nc3c(oc4ccccc43)c2=O)cc1	-1.1
CCS(=O)(=O)c1ncc(Cl)c(C(=O)N(Cc2ccccc2)Cc2ccco2)n1	-1.8
CCCN1CCN(CCCNC(=O)c2ccc3c(c2)sc2nc(-c4ccc(OCC)cc4)cn23)CC1	-1.4
Cc1cccc(C)c1Nc1c(-c2ccccc2F)nc2cccc(C)n12	-0.26
CCCSc1ncc(Cl)c(C(=O)N2CCN(c3cccc(Cl)c3)CC2)n1	0.12
COc1ccc(-n2nnnc2C2CCN(S(=O)(=O)c3ccc(C)cc3)CC2)cc1	2.7
Cc1ccc(NC(=O)c2nnn(Cc3cccc(C(F)(F)F)c3)c2N)c(C)c1	-2.9
Cc1cccnc1CCNC(=O)N1CCC(CS(N)(=O)=O)C1 (stereo not drawn)	-0.86
CCOC(=O)c1cnn(-c2cccc(Cl)c2)c1C1CCN(C(=O)OC(C)(C)C)CC1	-1.6
CC(=O)c1ccc(N2CCN(C(=O)C3CCCN(S(=O)(=O)c4ccc(Br)s4)C3)CC2)cc1 (stereo not drawn)	-1.1
Cc1ccc(-c2[nH]c3ccccc3c2SCCNC(=O)c2ccc(S(=O)(=O)N(C)C)cc2)cc1	1.9
Cc1ccc(C(=O)c2cn(Cc3ccccc3)c3ccccc3c2=O)cc1	-1.1
COc1ccc(OC)c(N(CC(=O)NCc2ccccc2)S(=O)(=O)c2ccccc2)c1	-2.3
Cc1ccc(C(=O)COC(=O)c2cccc(NC(=O)c3ccc(Br)cc3)c2)cc1	0.56
CN1CCN(CC2(CNC(=O)CN(C)Cc3cccnc3)CC2)CC1	-0.08
O=C(CSc1nc(-c2ccc(F)cc2)[nH]c1-c1ccccc1)Nc1ccccc1	0.3
Cc1nc2ccccn2c1C(=O)N1CCC(c2nc3c(C)cccc3[nH]2)CC1	-0.4
COC(=O)c1cc2occc2n1CC(=O)Nc1cccc(SC)c1	-0.92
COc1ccc(N(CC(=O)NCCc2ccc(Cl)cc2)S(=O)(=O)c2c(C)nn(C)c2C)cc1	-0.95
O=C(Cn1nccc1C1CCCNC1)NCCc1cnc[nH]1 (stereo not drawn)	0.8
CCOc1ccc(C(=O)Nc2cc(-c3nc4ccccc4s3)ccc2OC)cc1	-0.27
CCn1c(=O)cc(OCC(=O)N2CCN(c3ccc(F)cc3)CC2)c2ccccc21	-1.2
Fc1ccccc1-n1ncc2c1ncn1nc(COc3ccc(Cl)cc3)nc21	-0.03
COc1cc(OC)cc(-c2nc3nc(C)c(CCC(=O)Nc4cc(F)ccc4F)c(C)n3n2)c1	-0.12
CNC(=O)CCc1ccccc1NC(=O)C1CCCCC1C(=O)N1CCCC1 (stereo not drawn)	-0.61
O=C(CCC1CCCN(C(=O)c2cnco2)C1)NCc1ccc(F)c(F)c1 (stereo not drawn)	-0.99
COCCCN1C(=O)c2[nH]nc(-c3ccccc3O)c2C1c1ccc(OC)cc1 (stereo not drawn)	-0.66
N#CC1(c2ccccc2)CCN(C(=O)c2cncc(=O)[nH]2)CC1	-2.4
Cn1c(SCc2ccc(F)cc2)nc2ccc(C(=O)NCc3ccc(Cl)cc3)cc21	0.5
